# gsp antagonist – antagonists of gsp mutant (McCune-Albright syndrome); gsp-mutant cells, cAMP HTRF, 30 min; control for the full effect not named in the record; Potency, µM (series often up to 76.9 µM), for the others: top-dose activity change, negative = inhibition, actives largely listed as inhibitors; 340,000 compounds, 0.4% hits; AID 624288; active = falling curve of any shape with a large fitted effect; inconclusive = falling curve, mostly with a smaller effect; inactive = flat or rising curve; cell line not stated here;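 further: intracellular cAMP measured with PDE inhibitor Ro 20-1724 present during compound exposure; potency means the concentration at half of the fitted maximal effect; on the % scale 0 is the no-effect control and ±100 the full control effect; nearly all actives have a fitted effect of over 65% in size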
#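 Cells, 2000/well, grown 16–24 h in DMEM 10% FBS with 0.5 mg/ml G418, then compounds plus […] (300 uM addition stock), 30 min at 37C. cAMP read by HTRF (cAMP-d2 and anti-cAMP antibody-K in lysis buffer) after 30 min RT.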
# TRPML1 agonist – agonists of human TRPML1 channel | Q9GZU1 | TRPML1-expressing cells, Ca2+ dye fluorescence, FDSS; host cell line not named in the record; reference of the full effect not given here | activation, % (no concentration beside the values) | 410,000 compounds, 0.12% hits | AID 624414; in the data active = activation above about 50%; inconclusive = about 30% to 50%; inactive = below about 30%; further: 0% is about no effect; the text of the record puts the active cut at 80%
# Target sequence (Q9GZU1 whole entry, looked up): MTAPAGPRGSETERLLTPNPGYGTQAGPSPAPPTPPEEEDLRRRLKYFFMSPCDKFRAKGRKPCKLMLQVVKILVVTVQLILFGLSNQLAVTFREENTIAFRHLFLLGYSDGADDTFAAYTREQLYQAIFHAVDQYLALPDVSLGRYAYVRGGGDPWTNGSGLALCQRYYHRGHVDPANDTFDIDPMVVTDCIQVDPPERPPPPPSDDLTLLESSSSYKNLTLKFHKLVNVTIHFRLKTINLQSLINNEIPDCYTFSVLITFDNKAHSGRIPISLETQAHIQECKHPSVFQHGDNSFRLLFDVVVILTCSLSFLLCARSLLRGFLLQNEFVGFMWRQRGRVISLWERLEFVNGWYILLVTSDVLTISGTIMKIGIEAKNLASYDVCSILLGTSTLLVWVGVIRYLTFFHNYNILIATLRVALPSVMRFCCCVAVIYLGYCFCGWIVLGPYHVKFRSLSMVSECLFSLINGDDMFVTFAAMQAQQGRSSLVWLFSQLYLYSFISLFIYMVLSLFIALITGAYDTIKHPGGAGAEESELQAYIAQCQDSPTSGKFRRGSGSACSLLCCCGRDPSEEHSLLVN
#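 Agonist activity was taken from a 110 s kinetic Ca2+ dye read on the FDSS after pinning compounds onto TRPML1-DL cells. The cells were seeded at 1,500/well with Tet inducer, incubated about 16 h, then dye-loaded at room temperature.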
# ClpP mod – qHTS Assay for Activators of ClpP; ATP-dependent Clp protease proteolytic subunit (Bacillus subtilis (strain 168)), P80244; purified B. subtilis ClpP, FRET peptide cleavage, 20 min; Potency, µM (highest dose often 57.5 µM), for the others: top-dose activity change, negative = active; 340,000 compounds, 1.9% hits; AID 651965, 2013; active = well fitted falling curve with a large enough effect; inconclusive = small, poorly fitted or top-dose-only effect; inactive = no such curve, though single readings can be large or run the other way; further: potency means the concentration at half of the fitted maximal effect; the source files actives as falling curves though it sought activators and does not explain the sign; nearly all actives have a fitted effect of over 65% in size; many hits overshoot -100%
# Target sequence (P80244 whole entry, looked up): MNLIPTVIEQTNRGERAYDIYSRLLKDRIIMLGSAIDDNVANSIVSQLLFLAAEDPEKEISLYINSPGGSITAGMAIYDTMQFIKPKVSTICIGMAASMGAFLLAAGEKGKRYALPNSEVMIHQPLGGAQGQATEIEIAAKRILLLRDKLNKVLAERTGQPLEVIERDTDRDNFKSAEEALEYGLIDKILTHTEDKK
#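 ClpP 10 microg/mL final, pH 8 Tris/KCl buffer with BSA, glycerol, Tween-20; compound pinned in; FRET-FV substrate; RT 20 min; Ex320/Em430; ΔFRET vs ADEP 5.8 microM, DMSO, no enzyme.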
# Menin MLL FP FL – displaces fluorescein MLL peptide from human menin | AID 1766 | 290,000 tested, under 10 active | Fluorescence polarization, fluorescein-MLL peptide displacement from menin | FP activity change, % at 61.4 µM; inconclusive = falling polarisation curve, or a change in total fluorescence; inactive = total fluorescence flat and polarisation flat or rising; no compound was filed as active; the % refers to the polarisation; negative = inhibition;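 further: % of control where 0% means no effect; inhibitors lower the polarisation; unlabelled MLL peptide was the positive control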
# gsp agonist – activates gsp, the McCune-Albright syndrome mutation. Potency, µM (doses to about 76.9 µM), for the others: at the top dose activation (cAMP increase), actives largely listed as activators. gsp mutant cells, cAMP HTRF, 30 min; control for the full effect not named in the record. 340,000 compounds, 0.13% hits; active = well fitted activation curve with a large enough effect; inconclusive = small, poorly fitted or top-dose-only effect, or another doubt; inactive = no such curve, though single readings can be large or run the other way; cell line not stated here;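 further: phosphodiesterase inhibitor Ro 20-1724 added with compounds to block cAMP breakdown; potency means the concentration at half of the fitted maximal effect; nearly all actives have a fitted effect of over 60% in size; about a fifth of the inactives were tested at one dose only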
#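 Cells in DMEM/10% FBS with G418 were pretreated with compounds in DMSO plus […] (300 uM stock) for 30 min at 37C. cAMP was measured by HTRF (cAMP-d2 plus anti-cAMP antibody-K) after 30 min at room temperature.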
# TRPML1 inh – blocks the human TRPML1 channel; Q9GZU1; TRPML1-inducible cells, Ca2+ dye fluorescence, FDSS; hits give low values; inhibition of EC80 agonist-evoked calcium signal; activity change, negative = inhibition, % (concentration not given with the values); 390,000 compounds, 0.02% hits; in the data active means activity change below about -50%; inconclusive means about -30% to -50%; inactive means above about -30%;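 further: stimulus is agonist 54-4 at its EC80 concentration; on the % scale 0 is the no-effect control and ±100 the full control effect; the text of the record puts the active cut at -80%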
#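 TRPML1-DL cells, Tet-induced overnight (~16 h, 37 °C) at 1,500 cells/well, were loaded with Ca8 no-wash dye plus quencher for 45-90 min at room temperature. Compounds were pinned during FDSS kinetic reading; agonist 54-4 at EC80 (4 uM final) then added.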
# * marks the source's active call; other numbers are inactive results; ? = inconclusive; . = not tested or not shown; & = joins results of further samples; [ ] = another dose, or the depositor's remark.
SMILES,gsp antagonist,TRPML1 agonist,ClpP mod,Menin MLL FP FL,gsp agonist,TRPML1 inh
CSc1ccc(Cl)c(C(=O)OCC(=O)NCc2ccco2)c1,2%,-0.1,-8.3%,3.8,16%,-12
O=C1c2ccccc2C(=O)N1OCCCN1C(=O)c2ccccc2S1(=O)=O,-22%,-0.5,0.4%,.,-9%,9
Cc1c(OC(C)C(=O)NCC(O)c2ccccc2)ccc2c3c(c(=O)oc12)CCC3 (stereo unspecified),-22%,-0.8,3.9%,4.8,?,0
Cc1ccc(S(=O)(=O)N(CC(O)CN2CCCCC2)c2ccccc2)cc1 (stereo unspecified),13%,-0.7,2.6%,-1.0,1%,0
CCC(Oc1ccc(F)cc1)C(=O)N1CCCCCCC1 (stereo unspecified),4%,.,-3.6%,1.6,5%,.
COc1ccccc1N1CCN(C(=O)CCCCn2c(=O)[nH]c3ccsc3c2=O)CC1,-5%,0.8,-1.5%,2.2,-26%,3
O=C(CN(C(=O)c1csnn1)c1ccc(F)cc1)NCCc1ccccc1,12%,-0.3,.,5.3,-10%,5
COCCCN1C(=O)C(=O)/C(=C(/O)c2ccc(S(=O)(=O)N3CCCCC3)cc2)C1c1ccc(F)cc1 (stereo unspecified),7%,0.5,-2.8%,.,3%,15
Cn1c(=O)n(CC(=O)NCC2CCCO2)c(=O)c2c3c(sc21)CCCC3 (stereo unspecified),11%,0.3,0.1%,.,?,10
CCCCCC(=O)N1C[C@H](O)[C@@H](n2cc(COC(=O)c3ccccc3)nn2)C[C@@H]1c1ccc(Cl)cc1,.,0.6,1.0%,.,-61%[inhibitor],15
CCC(=O)Nc1ccc(N2CCC(C)CC2)cc1,1%,-0.8,0.2%,3.2,-119%[inhibitor],-1
CC1(c2nnc(-c3ccc(F)cc3)o2)CC(c2cccnc2)=NO1 (stereo unspecified),12%,-0.1,-1.0%,.,10%,-6
O=C(c1cc2nc(-c3ccco3)cc(C(F)(F)F)n2n1)N1CCN(c2ccccc2)CC1,-16%,0.4,-0.8%,6.0,-7%,18
CC(C)(C)c1ccc2c(c1)OC(C(=O)N/N=C\c1ccc[nH]1)CO2 (stereo unspecified),-12%,0.9,-3.0%,.,7%,2
O=C(NC(=S)Nc1cc(Cl)ccc1N1CCOCC1)c1ccccc1[N+](=O)[O-],-5%,2.6,-3.1%,-11,26%,22
CC(NC(=O)NCCCn1ccnc1)(C(F)(F)F)C(F)(F)F,8%,1.8,1.3%,-6.2,-4%,-8
COc1ccccc1NC(=O)c1ccc(NC(=O)C2CC2C)cc1 (stereo unspecified),0%,1.6,1.6%,.,-33%[inhibitor],-21
Cc1ccc(S(=O)(=O)c2nc(S(C)(=O)=O)sc2N2CCCCCC2)cc1,-7%,0.8,-3.2%,.,29%,20
CCOc1ccc(C(=O)Nc2nnc(C3=COCCO3)o2)cc1,1%,-0.2,-8.4%,.,0%[15.4 µM],-6
COc1ccc(N(CC(=O)NCc2ccco2)S(=O)(=O)c2c(C)nn(C)c2C)cc1,3%,-0.3,0.5%,2.0,-5%,-5
O=C(N/N=C\c1ccc(-c2ccc([N+](=O)[O-])cc2)o1)C1COc2ccccc2O1 (stereo unspecified),-18%,1.1,-0.1%,.,-4%,5
CCC1(C)Cc2ccccc2-c2nc(-c3ccccc3)oc(=O)c21 (stereo unspecified),2%,-0.7,-4.5%,4.2,2%,5
COc1cccc(-n2c(COc3ccc(C)cc3)nnc2SCC(N)=O)c1,3%,0.3,0.2%,-2.6,?,1
CC(C)c1cc(CNC(=O)CC2C(=O)NCCN2CC2CCCCC2)on1 (stereo unspecified),4%,0.3,-6.5%,-1.7,-1%,-9
Cn1cccc1C(C(=O)NC1CCCCC1)N(C(=O)Cc1cccs1)c1ccc2c(c1)OCO2 (stereo unspecified),6%,0.2,-3.1%,-1.1,1%,-8
CCCS(=O)(=O)NC(=O)C1(C)CCN(C(=O)c2c(F)cccc2F)C1 (stereo unspecified),.,-0.1,1.0%,.,.,-8
Cc1c(C)c(C)c(S(=O)(=O)N2CCNCC2)c(C)c1C,19%,-0.4,.,0.1,-19%[15.4 µM],4
Cn1cnnc1SCC(=O)Nc1ccccc1Sc1ccccc1,-1%,0.9,0.1%,2.5,-40%[inhibitor],-22
O=C(COc1cc(F)ccc1[N+](=O)[O-])Nc1cccc(Br)c1,.,0.2,.,1.4,3%[15.4 µM],47
CC(=O)c1ccc(OCc2ccc(C(=O)c3ccccc3)cc2)cc1,-13%,2.0,-1.5%,3.8,-6%[15.4 µM],32

# Single entries from above:
# Under TRPML1 inh, COc1cccc(-n2c(COc3ccc(C)cc3)nnc2SCC(N)=O)c1 is listed with 1
# Under TRPML1 inh, CCOc1ccc(C(=O)Nc2nnc(C3=COCCO3)o2)cc1 is listed with -6

# Compound profiles, from the list above. Order of values: gsp antagonist	TRPML1 agonist	ClpP mod	Menin MLL FP FL	gsp agonist	TRPML1 inh
# CC(=O)c1ccc(OCc2ccc(C(=O)c3ccccc3)cc2)cc1 is listed with -13%	2.0	-1.5%	3.8	-6%[15.4 µM]	32
# Cn1cnnc1SCC(=O)Nc1ccccc1Sc1ccccc1 is listed with -1%	0.9	0.1%	2.5	-40%[inhibitor]	-22
# COc1cccc(-n2c(COc3ccc(C)cc3)nnc2SCC(N)=O)c1 is listed with 3%	0.3	0.2%	-2.6	?	1
# CCC1(C)Cc2ccccc2-c2nc(-c3ccccc3)oc(=O)c21 (stereo unspecified) is listed with 2%	-0.7	-4.5%	4.2	2%	5
# CC(NC(=O)NCCCn1ccnc1)(C(F)(F)F)C(F)(F)F is listed with 8%	1.8	1.3%	-6.2	-4%	-8

# The listing continues.
SMILES,gsp antagonist,TRPML1 agonist,ClpP mod,Menin MLL FP FL,gsp agonist,TRPML1 inh
CCOC(=O)C1=C(CC)Nc2ccccc2N=C1NC(=O)c1oc2ccccc2c1C,?,0.7,.,-0.6,-8%[15.4 µM],3
COc1ccc(NC(=O)Cn2nnc(C(=O)NCCc3ccc(OC)c(OC)c3)c2N)cc1,-1%,1.1,1.1%,1.0,-27%,-5
COCCCNC(=O)C1CCN(c2nn3cc(-c4ccc(F)cc4)nc3s2)CC1,.,0.7,0.2%,.,.,-26
CC(C)(C)OC(=O)NCCCC[C@H](NC(=O)c1[nH]cnc1C(=O)N[C@@H](Cc1ccccc1)C(=O)OCc1ccccc1)C(=O)OC(C)(C)C,6%,1.4,-2.7%,.,-5%,-27
CCCC(=O)Nc1c(-c2ccccc2)c(=O)c(C)nn1-c1ccc(C)cc1,-11%,0.2,0.5%,1.2,-37%[inhibitor],13
COc1cccc(/C=N\NC(C)=O)c1OC/C=C/c1ccccc1,-1%,1.3,-15%,1.0,-22%,13
CC1(C)CC2(CCO1)CNC(=O)O2 (stereo unspecified),11%,-0.5,-2.9%,2.4,-33%[inhibitor],-5
C/C(=N\NC(=O)c1cccc([N+](=O)[O-])c1)c1cccnc1,-4%,1.0,-0.4%,0.1,?,4
CC1CCN(S(=O)(=O)c2cccc(-c3cn4cc(Cl)ccc4n3)c2)CC1,-13%,0.7,35µM*,0.5,1%,68
O=C(Nc1nnc(S(=O)(=O)N2CCCc3ccccc32)s1)c1cccc(Cl)c1,.,-0.1,-2.3%,.,.,-4
COc1ccc(NC(=O)C2=C(C)Nc3nc(SCc4ccccc4)nn3C2c2cc(OC)ccc2OC)cc1 (stereo unspecified),.,0.0,-1.3%,.,.,2
CN(Cc1ccccc1)C(=O)c1ncn2c1C(=O)N(C)CC2,.,0.1,1.2%,.,?,0
CCCCc1c(O)nc(SCC(=O)NCCc2ccc(OC)c(OC)c2)[nH]c1=O,4%,0.5,-2.0%,-3.0,-37%,1
Cc1cc(=O)n2nc(N3CCC(C(=O)NCc4ccccc4Cl)CC3)sc2n1,0%,0.1&-1.0,236%&-1.1%,1.7,?,6&-1
CC(CN1CCOCC1)OC(=O)COc1ccc(F)cc1 (stereo unspecified),10%,0.3,-1.2%,2.7,-61%[inhibitor],8
CCc1ccc(NC(=O)CNS(=O)(=O)c2c(C)noc2C)cc1,-1%,1.3,-4.1%,1.1,17%,11
Cc1cccc(CCNC(=O)Cc2ccc(NC3=NC4CS(=O)(=O)CC4S3)cc2)c1 (stereo unspecified),12%,-0.1,1.2%,-2.9,-5%,-12
Cc1cnc2c(c1SCC(=O)Nc1ccc(F)cc1F)c(=O)n(C)c(=O)n2C,.,1.2,-0.1%,.,.,-8
COc1ccc(C(=O)N(C)CCCC2CCCC2)cc1OC1CCN(C(C)C)CC1,0%,-0.5,-0.1%,-2.1,8%,16
CSc1cccc(NC(=O)Cn2ncn3c(cc4ccccc43)c2=O)c1,.,-0.2,-23%,.,.,16
O=C(Nc1cccc(S(=O)(=O)N2CCCCC2)c1)c1ccc2c(c1)OCO2,-15%,0.1,-2.3%,-0.4,-4%,34
O=C(Nc1ncn[nH]1)c1ccc(Cl)c(S(=O)(=O)N2CCCCCC2)c1,10%,0.3,-2.4%,2.3,1%,15
COc1cccc(-c2ccc3c(N)c(C(=O)Nc4ccc(Cl)cc4F)sc3n2)c1,.,0.0,-1.6%,.,.,11
CCc1noc(C)c1C(=O)Nc1ccc(S(=O)(=O)N2CCCCC2)cc1,1%,1.7,.,.,-3%[15.4 µM],3
O=C(N/N=C/c1cccc(Oc2ccccc2)c1)c1cccc(O)c1,-13%,-0.3,-0.3%,-0.2,-22%,13
CN(Cc1ccco1)C(=O)CC[C@H]1O[C@@H](n2ccc(=O)[nH]c2=O)[C@H](O)[C@@H]1O,.,0.7,-0.3%,.,.,-18
CCCCN(CC)CCCNC(=O)C1c2ccccc2C(=O)N(C)C1c1cn(C)c2ccccc12 (stereo unspecified),8%,-0.2,-0.5%,-1.9,20%,-1
CCN(CC)C(c1ccc(F)cc1)c1nnnn1C1CCCCC1 (stereo unspecified),15%,0.3,-0.3%,-1.6,-19%,-13
CCOC(=O)c1c(Oc2ccc(C(=O)OC)cc2)nnc(-c2ccccc2)c1-c1ccccc1,.,0.3,-1.5%,.,.,6
CC1CCN(c2ccc3nnc(CCC(=O)NCCCOC(C)C)n3n2)CC1,0%,1.6,-0.6%,-3.0,?,0
N#CCCN(C(=O)COC(=O)c1cc(=O)c2ccccc2o1)c1ccccc1,1%,-0.4,1.8%,.,-4%,2
COc1cccc(N2C(C(C)=O)=NN(c3ccccc3)C2c2ccc(N3CCOCC3)cc2)c1 (stereo unspecified),15%,0.1,1.7%,?,2%,10
